Assay outcomes (PubChem BioAssay)
LANA-H2B inh = blocks KSHV LANA binding to histone H2A/H2B; 320,000 tested, 0.6% active; cell-free LANA-H2A/H2B peptide, fluorescence polarization; inhibition, % (no concentration beside the values); AID 2629; Q9QR71; in the data active means inhibition mostly above about 10%, no sharp cut-off; inactive means mostly below about 6.7%;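 further: stock transfer was 7.5 nL into about 10 µL; 0% = median of vehicle wells and 100% = median of positive control wells; one replicate is shown; the record names a cut of 25% in any replicate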
Target sequence (Q9QR71 whole entry, looked up): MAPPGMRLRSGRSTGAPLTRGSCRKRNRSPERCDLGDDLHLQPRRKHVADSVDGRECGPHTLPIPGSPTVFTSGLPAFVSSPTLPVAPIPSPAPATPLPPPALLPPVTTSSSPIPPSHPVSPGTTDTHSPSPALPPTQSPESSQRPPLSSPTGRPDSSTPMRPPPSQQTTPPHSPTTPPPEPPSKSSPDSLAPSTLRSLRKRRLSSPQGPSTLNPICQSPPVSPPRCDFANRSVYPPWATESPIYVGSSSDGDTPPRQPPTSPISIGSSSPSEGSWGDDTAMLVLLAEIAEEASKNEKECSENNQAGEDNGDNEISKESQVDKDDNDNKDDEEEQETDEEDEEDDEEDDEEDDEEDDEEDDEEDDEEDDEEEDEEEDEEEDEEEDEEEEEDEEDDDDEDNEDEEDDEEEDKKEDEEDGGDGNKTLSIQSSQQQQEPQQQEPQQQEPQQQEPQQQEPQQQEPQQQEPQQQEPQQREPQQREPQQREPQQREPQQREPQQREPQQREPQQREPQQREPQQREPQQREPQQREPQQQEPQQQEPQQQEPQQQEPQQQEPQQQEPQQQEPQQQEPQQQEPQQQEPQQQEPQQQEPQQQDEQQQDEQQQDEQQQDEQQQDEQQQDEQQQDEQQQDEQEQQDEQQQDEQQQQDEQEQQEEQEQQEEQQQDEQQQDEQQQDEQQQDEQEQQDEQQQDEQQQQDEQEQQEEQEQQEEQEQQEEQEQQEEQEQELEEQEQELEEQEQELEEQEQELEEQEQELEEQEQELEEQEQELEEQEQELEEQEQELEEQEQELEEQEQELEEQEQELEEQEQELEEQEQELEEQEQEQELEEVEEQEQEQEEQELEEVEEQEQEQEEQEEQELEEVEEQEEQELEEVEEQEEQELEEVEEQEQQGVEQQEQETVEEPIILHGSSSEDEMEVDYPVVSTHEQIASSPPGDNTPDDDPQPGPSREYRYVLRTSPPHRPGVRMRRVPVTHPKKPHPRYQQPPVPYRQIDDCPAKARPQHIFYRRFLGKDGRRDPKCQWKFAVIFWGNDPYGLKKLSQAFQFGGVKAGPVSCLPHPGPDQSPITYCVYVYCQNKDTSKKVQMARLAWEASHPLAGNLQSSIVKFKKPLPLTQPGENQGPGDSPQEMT
T cruzi repl = T. cruzi replication inhibition | T. cruzi beta-gal in NIH3T3, luminescence, 90 h | inhibition, % (no concentration beside the values) | 300,000 tested, 1.4% active | AID 1885;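 active means mean inhibition across valid replicates above about 55%, limit read from the data; inconclusive means mean below that limit but half or more replicates reach it; inactive means mean below it, under half of replicates reach it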;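 further: signal also drops with host cell toxicity which is not excluded here; 0% = plate median of DMSO wells and 100% = zero luminescence signal; higher percent means less beta-gal luminescence so fewer parasites; stock transfer was 50 nL into about 50 µL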
Beta cell apopt = beta cell apoptosis inhibition | INS-1E cytokine-induced death, ATP luminescence, 48 h; percent of positive-control rescue, neutral wells zero | protection from apoptosis, % (concentration not given with the values) | 300,000 tested, 0.8% active | AID 435005;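 active means all replicates at 75% or more, or half of them and the mean; inconclusive means half reach 75% but not the mean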;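 further: 0% = cytokine-treated negative control wells and 100% = positive control rescue; higher means more ATP so stronger rescue from cytokine killing; wells of about 40 µL received 100 nL stock; the first replicate is given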
B2AR ag = agonists of human beta-2 adrenergic receptor inducing internalization. 340,000 tested, 0.43% active. response, % (concentration not given with the values). AID 504454. Am2.2-beta2AR cells, FAP receptor internalization, flow cytometry; reference of the scale not given here;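 active means response above a set limit, near 3 SD of response in nonfluorescent compounds, cut at about 42% in these data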;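 further: stock transfer was 100 nL into about 11 µL; a reference agonist was the positive control; negative values mostly stem from fluorescent compounds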
Ecoli rRNA inh = selective bacterial rRNA inhibition in E. coli; E. coli WT GFP vs humanized-ribosome RFP mutants, fluorescence, 24 h; active compounds read low; DMSO median 0, no signal -100; GFP signal change (wild-type ribosome), % (no concentration beside the values); AID 720706; 350,000 tested, 1.6% active;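 active means significant combined selectivity score with lowered wild-type GFP, culture density cut under 30%, mutant RFP and density less affected; inactive means any of these conditions unmet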; further: one replicate is shown; some compounds called inactive have numbers as strong as hits
ALR H2O2 inh = inhibitors of human sulfhydryl oxidase ALR; inhibition, % (no concentration beside the values); AID 485317; purified ALR, DTT oxidation, H2O2 HRP-luminol luminescence; 290,000 tested, 3.8% active; P55789;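 active means mean and each replicate at 75% or more; inconclusive means only one of the two met; inactive means neither met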;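 further: stock transfer was 7.5 nL into about 7.5 µL; 0% = neutral wells and 100% = wells with inactivated enzyme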
Calb FLC = affects C. albicans growth with fluconazole; C. albicans CaCi-2 (fluconazole-resistant clinical isolate) + fluconazole, Alamar Blue growth, 48 h; AID 1979; 300,000 tested, 0.57% active; growth inhibition, % (concentration not given with the values);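 active means most replicates above 75%; inconclusive means exactly half above 75%; inactive means most below 75%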;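 further: all wells also contain fluconazole at 8 µg/ml as a sub-toxic cotreatment; 0% = median of DMSO wells and 100% = median of geldanamycin control wells; wells of about 8 µL received 7.5 nL stock; the first replicate is given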
A1 inh = inhibitors of the anti-apoptotic protein A1, read as caspase activation; MEF A1-2A-BIM cells, Caspase-Glo 3/7 luminescence, 3 h; percent of clofoctol response, vehicle zero; caspase activation, % (concentration not given with the values); 330,000 tested, 0.066% active; AID 2462;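 active means over half of replicate activation scores above 10%, or exactly half above 10 with the replicate mean above 10; inconclusive means replicate mean below 10 yet half the replicates above 10; inactive means over half of replicates below 10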;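 further: wells of about 30 µL received 50 nL stock; many hits fall short of the cut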
Ecoli rRNA inh OD600 = second read-out of Ecoli rRNA inh, no call of its own (marks repeat the call); OD600 change, %; measured here: OD600 growth;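 optical density of the mix in the first replicate; 0 = DMSO median and -100 = no signal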
Ecoli rRNA inh RFP = also measured in Ecoli rRNA inh; calls as there; RFP signal change, %; measured here: RFP humanized mutant strains;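 first replicate; 0 = DMSO median and -100 = no signal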
* marks the source's active call; other numbers are inactive results; ? = inconclusive; . = not tested or not shown; & = joins results of further samples. The list is partial (hit frequency here may not be typical).

SMILES	LANA-H2B inh	T cruzi repl	Beta cell apopt	B2AR ag	Ecoli rRNA inh	Ecoli rRNA inh OD600	Ecoli rRNA inh RFP	ALR H2O2 inh	Calb FLC	A1 inh
Cc1cccc(N2C(=O)CCC2=O)n1	-1.0	-10	-5	16	.	.	.	-2	22	0.2
Cc1cc(NC(=O)COc2ccccc2C#N)no1	-1.1	.	3	29	9	9	-8.4	-2	.	-1.4
O=C(/C=C\c1ccco1)Oc1cccc2cccnc12	16	1	-2	-1	0	5	0.4	-1	-5	0.3
CCc1ccccc1NC1c2ccccc2C(=O)N1c1cc(C)ccn1 (configuration not stated)	1.5	9	-7	-2	-11	11	-5.7	.	0	0.4
Cc1ccc(Cl)cc1NC(=O)c1cnn2c1NC(c1ccco1)CC2C(F)(F)F (configuration not stated)	-2.3	30	0	-1	.	.	.	-4	-10	0.2
Clc1ccc(C2[C@H]3CN(Cc4cccnc4)[C@H](c4ccccc4)C34CC2(c2ccccc2)C4)cn1 (some centres not stated)	-0.7	56*	7	0	-4	-11	6.7	-1	13	-0.1
CC(C)c1ccc(NC(=S)NNC(=O)C2CC2)cc1	-8.4	-12	-3	-3	-6	-4	-0.1	16	-20	-0.4
CCCCn1c(=O)c(CCC(=O)OCC(=O)Nc2ccc(F)c(Cl)c2)nc2ccccc21	-5.3	-4	-8	-6	.	.	.	-29	-12	-0.2
CCOC(=O)c1c(NC(C)=O)sc2c(O)c(Br)ccc12	-3.8	-13	4	14	.	.	.	.	8	-0.2
CN(c1cccc(Cl)c1)S(=O)(=O)c1cccc(C(=O)NN2CCOCC2)c1	6.7	.	-6	-5	10	14	-1.2	1	.	-0.6
O=C(NCc1ccncc1)C(=O)NCC1OCCCN1S(=O)(=O)c1ccc(F)cc1 (configuration not stated)	4.3	-15	4	1	5	10	-1.2	-2	-1	0.2
CC(=O)C1=C(O)C(=O)N(c2cccc(Br)c2)C1c1ccc(Br)cc1 (configuration not stated)	0.6	15	4	-1	-22	-23	-1.3	16	22	2.1
CCn1c(=N)c(C(=O)NCCCOC)cc2c(=O)n3cccc(C)c3nc21	1.4	.	6	12	.	.	.	-6	.	0.1
Cc1ccc2c(CN3CCCc4ccccc43)cc(=O)oc2c1C	3.9	-4	5	-15	.	.	.	-11	10	-0.5
Cc1ccsc1/C=N/Nc1nc2ccccc2[nH]1	.	20	.	-5	-62	-81	-26	.	?	.
Cc1cc(C)c(C)c(S(=O)(=O)NCC(=O)O)c1C	-1.3	4	0	-5	.	.	.	0	4	2.1
Cc1ccc(Cn2ncc3c(NN)ncnc32)cc1	0.0	-19	-3	6	-3	8	3.9	2	-1	0.2
CCNC(=O)CC1C(=O)N(c2ccccc2)C(=O)N1CCc1ccc(OC)cc1 (configuration not stated)	-3.8	-17	-4	16	.	.	.	2	0	-0.7
O=C1CCCC2=C1C(c1ccncc1)c1c(nc(SCc3ccccc3)[nH]c1=O)N2 (configuration not stated)	1.2	-4	-4	-1	.	.	.	-3	-16	0.0
O=C1OC(c2ccccc2)=C/C1=C/c1cccs1	-7.6	-21	-2	-9	5	-7	11	-18	11	0.4
Cc1ccc(N2CC(C(=O)OCC(=O)c3ccc(C)c([N+](=O)[O-])c3)CC2=O)cc1 (configuration not stated)	0.1	-13	-9	-5	-1	8	-1.4	16	.	-0.2
Cc1cc(C)n(CC(=O)N/N=C/c2cc([N+](=O)[O-])ccc2O)n1	-3.9	0	-1	4	2	8	12	53	53	0.8
CC(=O)Nc1ccc(N(CC(=O)NC2CCCC2)C(=O)CCC(=O)Nc2cc(C)on2)cc1	2.9	-6	-3	-3	4	5	-0.5	0	-15	0.9
Cc1csc(N/N=C/c2ccccn2)n1	-0.6	5	7	9	-32*	-23*	-6.3*	12	-1	-8.7
CCNC(=S)NNC(=O)C1CCCCC1	-3.9	-7	-6	-1	.	.	.	12	4	0.0
Cc1cc(C(=O)CSc2nnc(N)s2)c(C)n1Cc1ccco1	-1.5	6	-1	0	12	9	2.5	8	-44	-5.6
CC(NC(=O)CN1C(=O)NC(Cc2ccccc2)(Cc2ccccc2)C1=O)C12CC3CC(CC(C3)C1)C2 (configuration not stated)	-1.0	61*	17	9	.	.	.	-12	-1	-0.5
CC1=C/C(=N\OS(=O)(=O)c2ccccc2)C(C(C)C)=CC1=O	-6.0	.	?	17	.	.	.	98*	.	0.7
COC(=O)CSc1nnc(-c2ccc(S(=O)(=O)N3CCCC3)cc2)o1	12	-8	2	16	12	13	1.4	.	2	0.2
CC(O)[C@H](NC(=O)C1CCN(C(=O)[C@H](Cc2ccccc2)NC(=O)OC(C)(C)C)CC1)C(=O)O (some centres not stated)	-3.0	-1	-6	-1	16	22	4.4	-5	-2	0.5
FC(F)(F)c1ccccc1NC1=NCCC1	-1.4	-24	-2	1	7	1	-2.5	-3	-4	-0.7
Cc1noc(/C=C/c2ccccc2F)c1S(=O)(=O)N1CCC(C(=O)N2CCN(C)CC2)CC1	-1.5	17	1	-13	16	16	-1.5	-5	-3	-1.2
COc1ccc(S(=O)(=O)Nc2ccc3c(c2)C(=O)N([C@H](C)CO)C[C@H](C)[C@@H](CN(C)S(C)(=O)=O)O3)cc1	5.3	.	-2	5	1&5	-2&5	-0.1&0.6	.	.	-0.2
FC(F)(F)c1cccc(Sc2nc(-c3ccccc3)nnc2C(F)(F)F)c1	7.4	44	-4	22	.	.	.	-1	3	1.3
O=C(/C=C/c1ccccc1)NC1CC2CCC1C2 (configuration not stated)	-2.1	12	-5	-8	.	.	.	-4	40	0.9
CC1(NC(=O)Nc2ccccc2)CCS(=O)(=O)C1 (configuration not stated)	2.2	-9	-3	7	5	10	-1.3	-2	2	1.8
O=C(NCCCN1CCN(c2ccc(F)cc2)CC1)c1cccc(N2CCCC2=O)c1	-1.9	8	-1	-11	.	.	.	40	-7	0.2
Cc1nc(NC(=O)C2CC2)sc1C(=O)N(C)C	-1.6	4	0	-2	.	.	.	18	-16	-0.2
COc1cccc(C=Nc2cc(C)on2)c1O	0.6	-3	-3	3	.	.	.	-62	45	0.0
O=C(Nc1nnc(SCc2ccc(F)cc2)s1)c1cnccn1	2.9	13	1	-4	9	-2	1.0	-8	47	0.0
Cc1ccc(C2CCN(C(=S)Nc3cccc(C)c3)C2)cc1 (configuration not stated)	-2.6	-5	0	9	-28	-28	-22	0	-13	-0.3
COc1ccccc1OCCSc1nc2ccccc2n1CC(O)CO (configuration not stated)	-2.0	-15	-8	4	3	10	-2.5	-3	-2	-0.6
Cc1cc(NC(=O)CN2C(=O)NC3(CCCCC3C)C2=O)no1 (configuration not stated)	-2.3	-3	-3	3	.	.	.	.	-5	1.2
COCC(C)n1c(C)cc(C(=O)COC(=O)c2c(NC(C)=O)sc(C)c2C)c1C (configuration not stated)	-1.8	9	1	20	.	.	.	5	-3	-0.7
CCCCNc1c([N+](=O)[O-])c(=O)n(C)c2ccccc12	-1.4	48	6	2	-24	-26	-4.1	-2	-19	-0.7
O=C1CCCN1c1ccc(S(=O)(=O)N2CCN(c3ccccc3)CC2)cc1	3.3	1	-3	-5	5	13	1.0	-6	-2	1.0
Cc1ccc(NC(=O)c2nnn(-c3ccc4c(c3)OCCO4)c2N)cc1	-4.6	2	-1	3	-15	-17	-0.4	0	12	-0.4
CC(=O)c1sc(NC(=O)COc2ccc(Br)cc2)nc1C	4.2	10	3	-2	2	10	0.6	-4	-1	-0.6
Cc1cccc(NC(=O)CSc2nnc(NC(=O)C3CCC3)s2)c1	-4.6	-17	0	-6	-3	6	-3.9	-2	-3	0.5
COc1cccc(-c2ccc(NC(=O)C3CCCN(Cc4cnn(C)c4C)C3)cc2)c1 (configuration not stated)	3.0	7	-5	27	0	1	2.3	-13	-1	0.7
COc1ccc(-c2cn(Cc3ccc(C(N)=O)cc3)c(-c3ccc(Cl)nc3)n2)cc1	-0.1	.	2	-18	-10	3	1.6	-9	.	0.6
Cc1ccc(C(=O)Nc2ccccc2C(=O)NC(C(=O)O)C(C)C)cc1 (configuration not stated)	-26	-9	.	15	.	.	.	.	-3	.
COC(=O)CNC(=O)CN1C(=O)NC2(CCCc3ccccc32)C1=O (configuration not stated)	1.8	-6	-8	-2	8	5	1.4	-4	-1	0.3
Cc1ccc(N=Cc2cc(Br)cc(Cl)c2O)cc1	-0.3	-38	-8	16	0	-6	-0.6	-6	1	0.3
O=C(c1c(F)cccc1F)N1CCN(c2ncccn2)CC1	-2.5	-13	-1	-5	.	.	.	-5	3	0.1
CCOC(=O)CN1C(=O)S/C(=C/C=C/c2ccc(N(C)C)cc2)C1=O	3.2	-14	-5	-45	.	.	.	55	-21	-0.2
Cc1cccc(CN2CCN(C(=O)CCl)CC2)c1	-1.5	7	-7	1	.	.	.	69	1	-0.7
O=C(Nc1ccc2c(c1)OCCO2)c1ccco1	-3.0	-21	.	-7	4	-1	-0.5	-5	-5	-6.4
N#Cc1c(-c2ccc(F)cc2)nc(-c2ccccc2)[nH]c1=O	-1.2	0	8	3	-1	-13	-1.9	47	-5	0.6
O=C(NCc1ccc2c(c1)OCO2)c1ccc(N2CCCCCC2)c([N+](=O)[O-])c1	1.4	59*	3	-9	.	.	.	-28	-24	0.2
(listing goes on)
SMILES	LANA-H2B inh	T cruzi repl	Beta cell apopt	B2AR ag	Ecoli rRNA inh	Ecoli rRNA inh OD600	Ecoli rRNA inh RFP	ALR H2O2 inh	Calb FLC	A1 inh
COc1ccc(/C=N/Nc2nn3cnnc3c3ccccc23)cc1	-3.0	12	-2	-2	7	-8	-4.0	2	-4	-1.3
O=C(NCC1([N+](=O)[O-])CN(C(=O)c2ccccc2)CN(C(=O)c2ccccc2)C1)c1ccccc1	-4.4	1	7	1	1	3	1.8	-2	-10	-0.1
CCN(CC)C(=O)Cn1c(=O)n(CCCC(=O)NCc2ccc3c(c2)OCO3)c(=O)c2sccc21	0.3	13	-2	-8	3	6	-4.0	.	8	0.8
COc1ccccc1OCCCCNCCO	-6.5	-2	0	7	5	9	-0.6	8	-14	-0.6
O=C1Nc2ccc(Br)cc2C1(O)Cc1ccccn1 (configuration not stated)	7.4	-25	.	2	16	1	4.9	-7	1	1.0
CCn1c(/C=C/N(C(C)=O)c2ccccc2)[n+](CCCS(=O)(=O)[O-])c2cc(Cl)c(Cl)cc21	4.0	-16	-5	0	11	15	2.7	-5	-7	0.3
COc1ccc(N(CC(=O)NCc2ccccc2)S(=O)(=O)c2c(C)n[nH]c2C)cc1	-0.8	6	-1	5	-2	-7	-4.1	-1	4	1.2
CCCCN(C)C(=O)CCC(=O)Nc1ccc2nc(N3CCN(C)CC3)cc(C)c2c1	-3.3	36	10	-15	-1	-8	-3.2	-5	-1	1.3
O=C(O)/C=C/C(=O)Nc1ccc(-c2ccccc2)cc1	4.9	1	-2	4	-2	5	-3.7	98*	?	-5.9
